Assay outcomes deposited in PubChem by ICCB-Longwood Screening Facility, Harvard Medical School.
LANA-nucl inh: inhibitors of KSHV LANA binding to nucleosomes. FITC-LANA1-23 / chicken nucleosome fluorescence polarization; hits give low values. z-score (concentration not given with the values). 51,000 tested, 0.3% active;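 active = both repeat wells score below -2 in polarization z-score versus plate sample wells, excluding overly bright wells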;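 also: 100 nL library stock added to about 30 µL; numbers are from one replicate; some results filed as inactive read as strong as hits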
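test system = FITC-LANA peptide and chicken nucleosomes | amount = 240 nM purified chicken nucleosomes (480 nM peptide binding sites), final | reagent = 50 nM FITC-LANA1-23 probe | medium = TEN-BT buffer, pH 7.5 | doses = single compound addition by pin transfer, 100 nL per well | timing = 10–45 min, room temperature | detection = fluorescence polarization | repeats = duplicate plates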
BasE inh: inhibitors of Acinetobacter baumannii siderophore enzyme BasE; purified BasE, fluorescence polarization binding displacement; inhibition, % (test concentration not listed); 84,000 tested, 0.1% active; AID 485350;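 active = both replicates above 25% with normal brightness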;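 also: 0% = negative plate control signal and 100% = positive plate control signal; stock transfer was 100 nL into about 30 µL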
Active calls of the source: *; · = no result given; & = joins results of further samples. Some of the compounds tested; the hit share may differ from the screen's.

SMILES	LANA-nucl inh	BasE inh
Nc1ccc(S(=O)(=O)N2CCCC(C(=O)O)C2)cc1 (stereo not given)	0.48	1.1
Cn1c(=NC(=O)CCSc2ccccc2)sc2cc(Cl)ccc21	·	3.6
COc1ccccc1-n1c(-c2ccccc2)cnc1SCC#N	·	-2.7
CCn1c(SCC(=O)NCc2ccc(C)cc2)nc2c(c1=O)SCC2	-0.53	2.7
Cc1cc(=O)n(CC(=O)Nc2ccc(F)cc2)c(SCC(N)=O)c1C#N	·	3.5
Cc1ccc2nc(NC(=O)CSc3nnc(Cc4ccccc4)o3)sc2c1	-0.2	-0.9
O=C(Cc1ccccc1F)Nc1cccc(-c2nn[nH]n2)c1	2	-0.5
CC(=O)NC12CC3CC(C1)CC(C(=O)NCC(c1ccco1)N(C)C)(C3)C2 (stereo not given)	·	1.1
NC(=O)N1CCNCC1	-0.36	0.1
CC=C1C2C=C(C)CC1(N)c1ccc(=O)[nH]c1C2 (stereo not given)	0.006	·
CCC(C)(C)N1CC(=O)N(Cc2ccccc2)C(c2ccc(OC)cc2)C1=O (stereo not given)	0.76	-0.5
CS(=O)(=O)N(c1ccc(F)cc1)C1C=CS(=O)(=O)C1 (stereo not given)	·	-0.9
Cc1ccc(C(=O)CSc2nc(C)cc(SCC#N)n2)cc1	-0.81	0.4
O=C1NNC(c2ccccc2)=N/C1=C\c1ccccc1	·	0.2
O=C(OCc1cc(=O)n2cc(Br)ccc2n1)c1cnccn1	·	0.7
CCOc1cccc(/C=N/n2c(-c3ccc(Cl)cc3)n[nH]c2=S)c1O	·	1.8
CCCc1cc(=O)[nH]c(SC(C)C(=O)NC(=O)NC)n1 (stereo not given)	·	-2.4
CS/C(=N\S(=O)(=O)c1cccs1)Nc1ccc(N2CCOCC2)cc1	·	0.3
N#Cc1c2c(c(N3CCN(CCO)CC3)n3c1nc1ccccc13)CCC2	-0.21	1.1
CC(c1ccco1)N(C(=O)c1ccc(Cl)s1)c1ccccn1 (stereo not given)	·	1.4
O=C(OC(C(=O)NC1CCCC1)c1cccnc1)C1=Cc2ccccc2OC1 (stereo not given)	-0.32	0.2
CC1Sc2nnc(-c3ccc(OC(F)F)cc3)n2N=C1c1ccc(NS(C)(=O)=O)cc1 (stereo not given)	·	0.9
COCc1c(C(=O)NCc2ccc(OC)cc2)oc2ccccc12	·	-0.2
CCN(Cc1ccccc1)C(=O)c1cc2sccc2n1Cc1ccccc1	0.26	-0.1
CSc1ccccc1NC(=O)C1C2CCC(C2)C1C(=O)O (stereo not given)	-0.29	0.7
Cc1ccc(C#N)c(SCc2nnc(-c3ccc(Cl)cc3)o2)n1	·	3.0
CC(C)NCC(O)COc1cccc2[nH]ccc12 (stereo not given)	0.067&-0.21&1.9&0.23	-4.7&-0.5
Cc1cc(O)cc(=O)[nH]1	-0.85	1.6
Cc1ccc(S(=O)(=O)N2CCCC(C(=O)O)C2)cc1 (stereo not given)	2.3	-2.3
COC(=O)CSc1nc2sc3c(c2c(=O)n1CC1CCCO1)CCCC3 (stereo not given)	·	0.5
Cc1ccc2c(c1)N(C(C)C(=O)NCc1cccs1)C(=O)CO2 (stereo not given)	1.3	-5.7
O=C(NC1CCCc2ccccc21)c1ccc(S(=O)(=O)N2CCOCC2)cc1 (stereo not given)	·	1.1
CC1CCCCN1Cc1c(C#N)c2ccccc2n1C (stereo not given)	-0.68	-2.8
CCNc1nc(SCC(=O)NC(=O)NCc2ccccc2)nc2sc3c(c12)CCN(C)C3	·	-1.8
O=C(O)c1ccccc1C(=O)OCCO	0.42	-0.6
O=C(N1CCCC1)N1CCC(c2ccc3c(c2)OCO3)CC1	-0.39	0.6
CC(C)CC(=O)Nc1ccc(C(=O)COC(=O)CSc2nnc(-c3ccc4c(c3)OCO4)o2)cc1	·	2.0
CCN(CC)CCN1C(=O)c2ccccc2NC1c1ccccc1F (stereo not given)	-0.3	-1.7
CCCC(CCC)C(=O)Nc1ncc2c(n1)CCCC2=O	0.41	-0.6
CNC(=O)NC(=O)C(C)Oc1ccccc1-c1ccccc1 (stereo not given)	·	-0.8
O=C(COc1ccc(S(=O)(=O)NCc2ccccc2)cc1)N1CCCC1	-0.34	0.2
Cc1ccc(C)c(-n2c(SCc3ccccc3C#N)nnc2-c2cc3sccc3n2C)c1	-2.6	-2.2
CCN(Cc1nc(-c2ccccc2)no1)C(=O)c1ccc2c(c1)OCO2	0.24	1.3
Cc1ccc(-c2oc(NC(=O)C3CCCC3)c(C#N)c2-c2ccc(C)cc2)cc1	·	-0.6
CCCNC(=O)Cn1nc(C)n2c(cc3ccccc32)c1=O	0.35	-1.6
N#Cc1ccc(C(=O)N2CCN(C(=O)c3ccccc3)CC2)cc1	·	0.3
CCC(=O)c1c(O)ccc2c(C)cc(=O)oc12	0.71	-1.0
Cc1cc(C)cc(N=Cc2c(C(F)(F)F)nn(C)c2Cl)c1	0.44	·
O=C(CN1CCC(NC(=O)C2CCCCC2)CC1)Nc1cccc(F)c1	2.4	-4.0
Cc1ccccc1NC(=O)NC(=O)CC#N	·	-0.8

Filtered by structure, those above containing a halogen (12)
SMILES	LANA-nucl inh	BasE inh
Cn1c(=NC(=O)CCSc2ccccc2)sc2cc(Cl)ccc21	·	3.6
Cc1cc(=O)n(CC(=O)Nc2ccc(F)cc2)c(SCC(N)=O)c1C#N	·	3.5
O=C(Cc1ccccc1F)Nc1cccc(-c2nn[nH]n2)c1	2	-0.5
CS(=O)(=O)N(c1ccc(F)cc1)C1C=CS(=O)(=O)C1 (stereo not given)	·	-0.9
O=C(OCc1cc(=O)n2cc(Br)ccc2n1)c1cnccn1	·	0.7
CCOc1cccc(/C=N/n2c(-c3ccc(Cl)cc3)n[nH]c2=S)c1O	·	1.8
CC(c1ccco1)N(C(=O)c1ccc(Cl)s1)c1ccccn1 (stereo not given)	·	1.4
CC1Sc2nnc(-c3ccc(OC(F)F)cc3)n2N=C1c1ccc(NS(C)(=O)=O)cc1 (stereo not given)	·	0.9
Cc1ccc(C#N)c(SCc2nnc(-c3ccc(Cl)cc3)o2)n1	·	3.0
CCN(CC)CCN1C(=O)c2ccccc2NC1c1ccccc1F (stereo not given)	-0.3	-1.7
Cc1cc(C)cc(N=Cc2c(C(F)(F)F)nn(C)c2Cl)c1	0.44	·
O=C(CN1CCC(NC(=O)C2CCCCC2)CC1)Nc1cccc(F)c1	2.4	-4.0

(cont.)
SMILES	LANA-nucl inh	BasE inh
COc1ccc(-c2cc(=O)n(CCC#N)[nH]2)cc1	-0.98	1.9
Cc1nn(Cc2ccccc2)c(Cl)c1C(=O)Nc1nnc(-c2ccccc2)o1	·	0.6
CCC(=O)Nc1ccc2c(c1)N(CC)C(C)(C)CC2C (stereo not given)	·	-0.8
COC(=O)c1scc2c(Sc3ccc(Cl)cc3)cc(C(F)(F)F)nc12	·	0.2
CCOc1ccc(NC(=O)c2cc3n(n2)CCCN(Cc2ccccc2)C3=O)cc1	0.84	-0.5
O=C(NN=C1C2CC3CC(C2)CC1C3)c1ccncc1	0.79	4.0
Cc1nc2c(Cl)c(Cl)c(Cl)c(N3CCOCC3)c2[nH]1	2.2	·
O=C(NCc1ccco1)c1ccc(CS(=O)(=O)c2ccccc2)cc1	0.23	-1.5
O=C(O)c1cc(=O)[nH]c2c(C(F)(F)F)cccc12	·	1.3
c1ccc2c3c(cc(N4CCOCC4)c2c1)OC1(N2CCOCC2)CCCCC1O3 (stereo not given)	-0.34	0.1
Cc1ccc(C2NCCS2)cc1 (stereo not given)	0.067	2.4
O=C(N1CCN(c2ccccc2F)CC1)N1c2ccccc2Sc2ccccc21	-0.56	2.3
CCn1c(=O)n(-c2ccccc2)c(=O)c2c1c1cc(OC)ccc1n2C	0.18	-2.6
COc1ccc(-c2nn(-c3ccccc3)cc2CC(=O)O)cc1	·	0.4
COC(=O)c1c(C)[nH]c(C(=O)CN(C)CC(=O)Nc2c(C)cc(C)cc2C)c1C	·	-1.7
N#CCCN(/N=C/c1ccc(-c2ccc(Br)cc2)o1)C1=NS(=O)(=O)c2ccccc21	-0.038	2.8
C=CCn1c(Sc2ncnc3c2cnn3-c2ccccc2)nnc1-c1ccncc1	·	1.1
COc1ccc2c(CC(=O)N(C)CC3COc4ccccc4O3)coc2c1 (stereo not given)	·	1.1
COc1ccccc1C(=O)C1C(=O)NC2(C)CC1c1cccc(OC)c1O2 (stereo not given)	0.71	1.0
CCOC(=O)c1c(NC(=O)C(C)Sc2nc3c(cnn3-c3ccc(C)cc3)c(=O)[nH]2)sc2c1CCC2 (stereo not given)	-0.43	0.4
C/C(=N\NC(=O)CSc1nnc(-c2ccccc2)n1-c1ccccc1)c1cccs1	-0.12	2.5
CCc1ccc(S(=O)(=O)N2CCCC2C(=O)OC)cc1 (stereo not given)	-0.53	0.7
OCCSc1n[nH]c(-c2ccccc2)n1	-0.16	1.3
CC(=O)Nc1ccc(NCC(O)Cn2ccc3ccccc32)cc1 (stereo not given)	1.8	-3.7
CC(C)N(Cc1ccccc1)S(=O)(=O)c1ccc(S(=O)(=O)c2ccccc2)s1	0.35	·
COC(CNCc1cc(Cl)c2c(c1)OCCCO2)OC	·	0.6
COc1ccc(-c2ocnc2C(=O)NCc2ccccc2)cc1	2.6	-2.9
CCCNS(=O)(=O)c1ccc(-n2cnnn2)c(OC)c1	1.9	-4.5
CC(c1ccccc1)n1c(SCc2cc(=O)oc3cc(O)ccc23)n[nH]c1=O (stereo not given)	·	0.2
CN1C(=C(C#N)C(=O)CN2c3cccc4cccc(c34)S2(=O)=O)N(C)c2ccccc21	·	0.5
S=c1nc(Nc2ccccc2)c2ccccc2[nH]1	·	-0.9
Cc1cc(NC(=O)COc2coc(CN3CCc4ccccc4C3)cc2=O)no1	2.5	-0.7
O=C(CNC(=O)c1ccc(Br)cc1)NC1CC1	·	4.4
OCCNc1ncnc2scc(-c3ccc(F)cc3)c12	-0.049	2.0
Cc1sc2ncnc(NC(C)C(=O)O)c2c1C (stereo not given)	0.95	-0.8
CCCCc1ccc(NC(=O)C2CC(=O)N(C)C2)cc1 (stereo not given)	-0.11	0.5
S=c1sc2ccccc2n1CN1CCOCC1	-0.05	1.5
COc1cccc(N=C2NN=C(c3ccc(S(=O)(=O)N4CCCCC4)cc3)CS2)c1	·	2.7
COc1cccc(-c2noc(-c3cc(OC)cc(OC)c3)n2)c1	0.58	1.3
COC(=O)c1cc2sccc2n1CCC#N	0.79	-3.3
COC(=O)Cc1c(C(=O)OC)nnn1-c1ccc(Br)cc1	-0.51	1.5
COc1ccccc1NC(=O)C(C)OC(=O)c1ccc(O)cc1 (stereo not given)	·	-2.8
COc1ccc(N(C)S(=O)(=O)c2ccc3c(c2)CC(C)N3C(=O)C2CC2)c(OC)c1 (stereo not given)	-0.36	1.5
CC(N=C1CCCc2ccccc2N1)C(=O)O (stereo not given)	·	2.4
Cc1nn(C)cc1CN(C)C(=O)c1cc2n(n1)C(C(F)(F)F)CC(c1ccccc1)N2 (stereo not given)	-0.058	2.1
COc1cccc(C(=O)N2CCCC2)c1	-0.74	-0.2
C/C(N)=C(/C#N)C(=O)Cn1nnc(-c2ccccc2)n1	·	4.9
COc1cc2c(cc1NC(=O)CSCc1nc(N)nc(Nc3ccccc3C)n1)oc1ccccc12	·	1.2
CCN(CC)c1ccc(N=CN2CCOCC2)cc1	·	-4.0
COc1cc(/C=C/C(=O)O)cc(S(=O)(=O)N2CCOCC2)c1OC	·	1.4
Additional records
SMILES	LANA-nucl inh	BasE inh
COc1ccc(/C=C2\Cc3ccccc3C2=O)cc1O	·	2.5
CCCCCn1c2ccccc2c2nc3ccccc3nc21	0.28	-3.0
Cc1cccc(-n2ncc(C(=O)N3CCC(C(N)=O)CC3)c2-n2cccc2)c1	·	-0.5
CC(=O)Nc1nnc(S(N)(=O)=O)s1	0.49&2.1&1.3	-2.1&0.4
S=c1[nH]nc(Cc2ccccc2)o1	0.58	0.5
C/C=C1\NC(=S)N(Cc2ccccc2)C1=O	0.5	1.3
CCC1(C)NC(=O)N(/N=C/c2cc(Br)ccc2OC)C1=O (stereo not given)	·	0.4
CCCc1cc(=O)[nH]c(=S)[nH]1	0.13&-0.15&-0.27	-0.1&1.6&-1.4
CCC(CC)NC(=O)Nc1ccc(F)cc1F	-0.2	-0.7
COC(=O)c1c(C)oc2ccc(N(C(=O)Oc3ccccc3)S(=O)(=O)c3ccc(C)cc3)cc12	·	-1.6
CCN1C(=O)C(O)(CC(=O)c2ccc(OC)c(OC)c2)c2ccccc21 (stereo not given)	-1.1	-0.7
N#CCCn1cc(/C=C/C(=O)OCC(=O)c2ccc(Cl)cc2)c(-c2cc3ccccc3o2)n1	·	-1.4
CC(c1ccccc1)n1c(COc2ccccc2)nc2ccccc21 (stereo not given)	·	2.4
CC(=O)NC(Cc1ccccc1)C(=O)OCN1C(=O)c2ccccc2C1=O (stereo not given)	-0.89	-0.4
O=S(=O)(NCCSc1ccccc1)c1ccc(Cl)cc1	-0.85	-0.8
Cc1nc(-c2coc3c(I)c(O)ccc3c2=O)cs1	·	-2.4
COCCn1cnc2c1c(=O)n(Cc1ccc(C(=O)OC)cc1)c(=O)n2Cc1ccccc1	·	-1.2
CCc1cc2c(=O)n(Cc3ccco3)c(SCC(=O)NCC3CCCO3)nc2s1 (stereo not given)	0.31	1.2
CCC1CCCCN1C(=O)CCS(=O)(=O)c1ccccc1 (stereo not given)	0.13	3.0
CC(C)NC[C@@H](O)COc1ccc(CC(N)=O)cc1	0.53	-1.6
O=C(Nc1nc2ccccc2[nH]1)c1ccc2c(=O)n3c(nc2c1)CCCCC3	·	1.2
CCN(CC)c1ccc(/C=N/NC(=O)CC(C)C)cc1	-0.15	0.3
